Screens as filed in PubChem.
A1 apoptosis 2: A1 inhibitors via caspase activation, primary screen, cell-based, luminescence, HTS, two replicates | 24,000 tested, under 10 active | AID 2465, 2010 | caspase activation, % (no concentration beside the values) | MEF A1-2A-BIM cells, caspase-Glo luminescence, 3 h; percent of clofoctol response, DMSO zero; in the data active = caspase activation above about 5.9%;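 also: wells of about 30 µL received 50 nL stock; the first replicate is given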
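Evaluation: Caspase-3/7 activity from luminescence increase | Assay system: A1-2A-BIM mouse embryonic fibroblasts | Quantity: 2500 MEF cells/well | Medium: RPMI-1640 plus 10% FBS | Detection: Caspase-Glo 3/7 luminescence, 1 h at room temperature | Dosing: 50 nL compound per well, pinned | Timing: Cells settled overnight, compound exposure 3 h at 37 °C, 5% CO2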
* hit, by the source's call.

Start of the data: the first four entries, ahead of the listing:
SMILES	A1 apoptosis 2
C[C@H](CO)N1C[C@H](C)[C@@H](CN(C)Cc2ccc(C(=O)O)cc2)OCCCC[C@H](C)Oc2ccc(NC(=O)CCCN(C)C)cc2C1=O	1.2
CNC[C@H]1Oc2ccc(NC(=O)NC(C)C)cc2CC(=O)N([C@H](C)CO)C[C@H]1C	0.8
C[C@@H]1CN([C@H](C)CO)C(=O)c2cc(NS(=O)(=O)c3cccs3)ccc2O[C@@H]1CN(C)S(=O)(=O)c1cccs1	0.6
Cc1noc(C)c1NC(=O)Nc1ccc2c(c1)C(=O)N([C@H](C)CO)C[C@H](C)[C@@H](CN(C)C(=O)Nc1c(C)noc1C)OCCCC[C@H](C)O2	-0.3

This part in full, previewed entries included:
SMILES	A1 apoptosis 2
C[C@H](CO)N1C[C@H](C)[C@@H](CN(C)Cc2ccc(C(=O)O)cc2)OCCCC[C@H](C)Oc2ccc(NC(=O)CCCN(C)C)cc2C1=O	1.2
CNC[C@H]1Oc2ccc(NC(=O)NC(C)C)cc2CC(=O)N([C@H](C)CO)C[C@H]1C	0.8
C[C@@H]1CN([C@H](C)CO)C(=O)c2cc(NS(=O)(=O)c3cccs3)ccc2O[C@@H]1CN(C)S(=O)(=O)c1cccs1	0.6
Cc1noc(C)c1NC(=O)Nc1ccc2c(c1)C(=O)N([C@H](C)CO)C[C@H](C)[C@@H](CN(C)C(=O)Nc1c(C)noc1C)OCCCC[C@H](C)O2	-0.3
O=C(CCCCCCC(=O)Nc1ccccc1O)N/N=C/c1ccccc1	-0.1
C[C@H](CO)N1C[C@H](C)[C@H](CN(C)CC2CCCCC2)Oc2ccc(NC(=O)c3ccncc3)cc2CC1=O	0.4
C[C@H]1CN([C@@H](C)CO)C(=O)Cc2cc(NC(=O)Nc3ccc(F)cc3)ccc2O[C@H]1CN(C)C(=O)Nc1cccc2ccccc12	-1.0
C[C@@H]1CN([C@H](C)CO)C(=O)c2cccc(NC(=O)NC3CCCCC3)c2O[C@@H]1CN(C)Cc1ccc(Oc2ccccc2)cc1	-0.9
C[C@@H]1CCCCO[C@@H](CN(C)Cc2ccccc2)[C@H](C)CN([C@H](C)CO)C(=O)c2cc(NC(=O)Nc3cccc4ccccc34)ccc2O1	1.3
COc1ccc(NC(=O)Nc2ccc3c(c2)C(=O)N([C@@H](C)CO)C[C@H](C)[C@@H](CN(C)C(=O)Nc2c(C)noc2C)OCCCC[C@H](C)O3)cc1	0.0
COc1ccc(S(=O)(=O)Nc2cccc3c2O[C@H](CN(C)S(=O)(=O)c2ccc(C)cc2)[C@@H](C)CN([C@H](C)CO)C3=O)cc1	-0.6
C[C@@H]1CN([C@@H](C)CO)C(=O)Cc2cc(NC(=O)Cc3cn(C)c4ccccc34)ccc2O[C@@H]1CN(C)Cc1ccncc1	0.2
C[C@@H]1CN([C@@H](C)CO)C(=O)c2cc(NS(C)(=O)=O)ccc2O[C@@H](C)CCCCO[C@@H]1CN(C)C(=O)CCCN(C)C	-0.5
COCCCNC(=O)[C@@]1(CCS(=O)(=O)c2ccccc2)COC(c2ccc(OCCCO)cc2)=N1	-0.4
C[C@@H]1CN([C@@H](C)CO)C(=O)Cc2cc(NS(=O)(=O)c3cn(C)cn3)ccc2O[C@@H]1CN(C)S(=O)(=O)c1ccccc1	0.9
C[C@@H]1CN([C@H](C)CO)C(=O)c2cc(NC(=O)C3CCCCC3)ccc2O[C@H]1CN(C)S(=O)(=O)c1ccccc1	-0.4
C[C@@H]1CN([C@H](C)CO)C(=O)c2cccc(NS(=O)(=O)c3ccc(Cl)cc3)c2O[C@@H]1CN(C)C(=O)Nc1ccc(C(F)(F)F)cc1	0.5
C[C@@H]1CCCCO[C@@H](CN(C)C)[C@H](C)CN([C@H](C)CO)C(=O)c2cc(NC(=O)Nc3cccc4ccccc34)ccc2O1	-0.1
C[C@H](CO)N1C[C@H](C)[C@@H](CN(C)C(=O)c2ccccc2)OCCCC[C@H](C)Oc2ccc(NC(=O)NC3CCCCC3)cc2C1=O	2.5
O=C(CCCCCCC(=O)Nc1ccccc1O)N/N=C/c1ccncc1Br	0.9
C[C@H]1CN([C@@H](C)CO)C(=O)Cc2cc(NS(=O)(=O)c3cccs3)ccc2O[C@H]1CN(C)Cc1ccc(C(F)(F)F)cc1	-0.8
Cc1noc(C)c1S(=O)(=O)N(C)C[C@@H]1OCCCC[C@@H](C)Oc2ccc(NC(=O)NC(C)C)cc2C(=O)N([C@@H](C)CO)C[C@H]1C	0.7
O=C(CCCCCC(=O)N/N=C/c1cccnc1Br)NO	-0.4
COc1ccc([Si](C)(C)[C@@H]2[C@@H](CCn3cc(CCO)nn3)O[C@]3(C(=O)N(c4ccccc4)c4ccccc43)[C@H]2C)cc1	12*
C[C@@H]1CN([C@H](C)CO)C(=O)c2cccc(NS(=O)(=O)c3ccc(Cl)cc3)c2O[C@@H]1CN(C)Cc1ccc(C(=O)O)cc1	1.8
[N-]=[N+]=NCc1ccccc1C[C@]1(C(=O)N2CCCCC2)COC(c2ccc(OCCCO)cc2)=N1	0.7
C[C@@H]1CN([C@@H](C)CO)C(=O)c2cc(NC(=O)CCCCCC(=O)Nc3ccccc3N)ccc2O[C@H]1CN(C)C(=O)Nc1ccc2c(c1)OCO2	1.4
C[C@H]1CN([C@@H](C)CO)C(=O)c2cccc(NC(=O)C3CCOCC3)c2O[C@@H]1CN(C)Cc1ccc(Cl)c(Cl)c1	-1.1
C[C@H]1CN([C@@H](C)CO)C(=O)c2cc(NC(=O)Cc3ccccc3)ccc2O[C@@H]1CN(C)C(=O)Nc1ccc(F)cc1	-0.7
Cc1ccc(S(=O)(=O)N(C)C[C@H]2OCCCC[C@H](C)Oc3ccc(NS(=O)(=O)c4ccc(Cl)cc4)cc3C(=O)N([C@@H](C)CO)C[C@H]2C)cc1	0.0
Cc1noc(C)c1S(=O)(=O)N(C)C[C@H]1Oc2ccc(NC(=O)Nc3ccc(F)cc3)cc2CC(=O)N([C@@H](C)CO)C[C@H]1C	-0.7
O=C(N/N=C/c1cc(O)ccc1Br)c1ccccn1	-12
Cc1noc(C)c1S(=O)(=O)Nc1ccc2c(c1)CC(=O)N([C@@H](C)CO)C[C@@H](C)[C@H](CN(C)C(=O)Nc1ccc3c(c1)OCO3)O2	-1.1
C[C@@H]1CCCCO[C@H](CN(C)Cc2ccc(C(F)(F)F)cc2)[C@H](C)CN([C@H](C)CO)C(=O)c2cc(NS(=O)(=O)c3ccc(Cl)cc3)ccc2O1	0.6
COc1ccc(NC(=O)N(C)C[C@@H]2OCCCC[C@@H](C)Oc3ccc(NC(=O)c4ccccc4)cc3C(=O)N([C@H](C)CO)C[C@H]2C)cc1	-1.0
C[C@@H]1CN([C@H](C)CO)C(=O)c2cccc(NC(=O)C3CCOCC3)c2O[C@@H]1CN(C)C(=O)Nc1ccc(F)cc1	-0.4
C[C@@H]1CCCCO[C@H](CN(C)C(=O)CCCN(C)C)[C@H](C)CN([C@@H](C)CO)C(=O)c2cc(NS(=O)(=O)c3cccs3)ccc2O1	-0.5
C[C@H]1CN([C@@H](C)CO)C(=O)CCCn2nncc2CO[C@H]1CN(C)CC1CCCC1	1.0
CNC[C@H]1OCCCC[C@H](C)Oc2ccc(NS(=O)(=O)c3cccs3)cc2C(=O)N([C@@H](C)CO)C[C@@H]1C	0.1
COc1ccc(NC(=O)Nc2ccc3c(c2)CC(=O)N([C@@H](C)CO)C[C@H](C)[C@H](CN(C)C(=O)NC(C)C)O3)cc1	1.9
C[C@@H]1CCCCO[C@@H](CN(C)CC2CCCCC2)[C@@H](C)CN([C@H](C)CO)C(=O)c2cc(NS(=O)(=O)c3cccs3)ccc2O1	0.0
COc1ccc(CN(C)C[C@H]2Oc3c(NS(=O)(=O)c4ccc(OC)cc4)cccc3C(=O)N([C@H](C)CO)C[C@@H]2C)cc1	-0.4
C[C@@H]1CN([C@@H](C)CO)C(=O)c2cc(N(C)C)ccc2O[C@@H]1CN(C)C(=O)NC1CCCCC1	0.0
Cc1noc(C)c1NC(=O)Nc1ccc2c(c1)C(=O)N([C@@H](C)CO)C[C@@H](C)[C@@H](CN(C)S(C)(=O)=O)OCCCC[C@@H](C)O2	-0.3
C[C@H]1CN([C@@H](C)CO)C(=O)c2cc(NS(=O)(=O)c3ccc(F)cc3)ccc2O[C@@H]1CN(C)Cc1ccc(C(=O)O)cc1	-0.3
COc1ccc(S(=O)(=O)Nc2ccc3c(c2)CC(=O)N([C@H](C)CO)C[C@H](C)[C@H](CN(C)C)O3)cc1	-0.1
COc1ccc(NC(=O)N(C)C[C@@H]2Oc3c(NS(=O)(=O)c4cccs4)cccc3C(=O)N([C@@H](C)CO)C[C@@H]2C)cc1	-0.5
COc1ccc(S(=O)(=O)N(C)C[C@@H]2Oc3ccc(NC(=O)Nc4ccc(C(F)(F)F)cc4)cc3C(=O)N([C@H](C)CO)C[C@H]2C)cc1	-0.4
CNC[C@H]1OCCCC[C@H](C)Oc2ccc(NS(=O)(=O)c3ccc(F)cc3)cc2C(=O)N([C@@H](C)CO)C[C@H]1C	1.1
CCOc1cccc(/C=N/NC(=O)CCCCC(=O)NO)c1OCC	-0.5
COc1ccc(NC(=O)N(C)C[C@@H]2OCCCC[C@@H](C)Oc3ccc(NC(=O)CCC(F)(F)F)cc3C(=O)N([C@H](C)CO)C[C@@H]2C)cc1	0.0
COc1ccc(CN(C)C[C@H]2Oc3ccc(NS(=O)(=O)c4c(C)noc4C)cc3CC(=O)N([C@@H](C)CO)C[C@@H]2C)cc1	0.5
C[C@H]1CN([C@@H](C)CO)C(=O)c2cccc(NC(=O)c3ccncc3)c2O[C@H]1CN(C)S(=O)(=O)c1ccc(F)cc1	0.0
Cc1noc(C)c1S(=O)(=O)Nc1ccc2c(c1)C(=O)N([C@H](C)CO)C[C@H](C)[C@@H](CN(C)Cc1ccc3c(c1)OCO3)OCCCC[C@@H](C)O2	0.8
CNC[C@@H]1Oc2ccc(NC(=O)Nc3ccc4c(c3)OCO4)cc2CC(=O)N([C@H](C)CO)C[C@@H]1C	0.2
Cc1ccc(S(=O)(=O)N(C)C[C@H]2OCCCC[C@@H](C)Oc3ccc(NC(=O)CCC(F)(F)F)cc3C(=O)N([C@@H](C)CO)C[C@@H]2C)cc1	-0.5
COc1ccc(NC(=O)N(C)C[C@H]2OCCCC[C@H](C)Oc3ccc(NS(=O)(=O)c4cn(C)cn4)cc3C(=O)N([C@@H](C)CO)C[C@H]2C)cc1	1.1
CC(C)NC(=O)Nc1ccc2c(c1)C(=O)N([C@@H](C)CO)C[C@@H](C)[C@@H](CN(C)CC1CC1)OCCCC[C@@H](C)O2	-0.1
CNC[C@H]1Oc2c(cccc2N(C)C)C(=O)N([C@H](C)CO)C[C@@H]1C	-0.1
C[C@H](CO)N1C[C@H](C)[C@H](CN(C)Cc2ccc(C(F)(F)F)cc2)OCCCC[C@H](C)Oc2ccc(NC(=O)CCCN(C)C)cc2C1=O	0.1

3 records drawn at random from those above, as already listed:
SMILES	A1 apoptosis 2
C[C@@H]1CN([C@@H](C)CO)C(=O)c2cc(N(C)C)ccc2O[C@@H]1CN(C)C(=O)NC1CCCCC1	0.0
CNC[C@H]1Oc2c(cccc2N(C)C)C(=O)N([C@H](C)CO)C[C@@H]1C	-0.1
C[C@H]1CN([C@@H](C)CO)C(=O)CCCn2nncc2CO[C@H]1CN(C)CC1CCCC1	1.0

Continuation:
SMILES	A1 apoptosis 2
CCCN(C)C[C@H]1OCCCC[C@H](C)Oc2ccc(NS(=O)(=O)c3ccc(F)cc3)cc2C(=O)N([C@@H](C)CO)C[C@@H]1C	-1.3
C[C@H](CO)N1C[C@H](C)[C@@H](CN(C)S(=O)(=O)c2ccc(Cl)cc2)Oc2c(NS(=O)(=O)c3cccs3)cccc2C1=O	-0.2
CC(C)OC(=O)N(C)C[C@H]1OCc2cn(nn2)CCCC(=O)N([C@@H](C)CO)C[C@@H]1C	1.3
C[C@H](CO)N1C[C@H](C)[C@@H](CN(C)Cc2ccc(C(=O)O)cc2)Oc2c(NS(=O)(=O)c3ccc(Cl)cc3)cccc2C1=O	0.1
C[C@@H]1CN([C@@H](C)CO)C(=O)Cc2cc(NC(=O)C3CC3)ccc2O[C@@H]1CN(C)CC1CC1	1.5
C[C@@H]1CN([C@@H](C)CO)C(=O)c2cc(NS(=O)(=O)c3cn(C)cn3)ccc2O[C@@H]1CN(C)C(=O)Nc1ccc(F)cc1	1.7
C[C@@H]1CN([C@H](C)CO)C(=O)c2cccc(NC(=O)CCCCCC(=O)Nc3ccccc3N)c2O[C@H]1CN(C)Cc1ccc2c(c1)OCO2	-0.5
C[C@@H]1CN([C@@H](C)CO)C(=O)c2cc(NC(=O)c3ccncc3)ccc2O[C@H]1CN(C)S(=O)(=O)c1ccc(F)cc1	-1.0
CC(C)NC(=O)Nc1ccc2c(c1)C(=O)N([C@H](C)CO)C[C@H](C)[C@H](CN(C)Cc1ccc(C(=O)O)cc1)OCCCC[C@@H](C)O2	0.0
COc1ccc(S(=O)(=O)N(C)C[C@@H]2Oc3c(NC(=O)NC(C)C)cccc3C(=O)N([C@H](C)CO)C[C@H]2C)cc1	0.1
C[C@H](CO)N1C[C@H](C)[C@H](CN(C)C(=O)NC2CCCC2)Oc2ncc(-c3cc4ccccc4o3)cc2C1=O	-1.4
Cc1ccc(S(=O)(=O)Nc2ccc3c(c2)C(=O)N([C@@H](C)CO)C[C@H](C)[C@@H](CN(C)C(=O)Cc2ccccc2)OCCCC[C@@H](C)O3)cc1	-0.2
C[C@H](CO)N1C[C@H](C)[C@H](CN(C)C(=O)NC2CCCCC2)Oc2ccc(N(C)C)cc2CC1=O	-0.2
O=C1c2ccccc2C(=O)N1[C@@H]1CCCN(Cc2ccc(OCCO)cc2)C1	1.0

A portion of the library. The share of hits here may be higher or lower than overall.
